B2AR ag: human beta-2 adrenergic receptor agonism by FAP | response, % (concentration not given with the values) | P07550 | Am2.2-beta2AR cells, FAP receptor internalization, flow cytometry; reference of the scale not given here | 340,000 compounds, 0.43% hits;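 active = response above a set limit, near 3 SD of response in nonfluorescent compounds, cut at about 42% in these data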;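 note: stock transfer was 100 nL into about 11 µL; a reference agonist was the positive control; negative values mostly stem from fluorescent compounds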
Target sequence (P07550 whole entry, looked up): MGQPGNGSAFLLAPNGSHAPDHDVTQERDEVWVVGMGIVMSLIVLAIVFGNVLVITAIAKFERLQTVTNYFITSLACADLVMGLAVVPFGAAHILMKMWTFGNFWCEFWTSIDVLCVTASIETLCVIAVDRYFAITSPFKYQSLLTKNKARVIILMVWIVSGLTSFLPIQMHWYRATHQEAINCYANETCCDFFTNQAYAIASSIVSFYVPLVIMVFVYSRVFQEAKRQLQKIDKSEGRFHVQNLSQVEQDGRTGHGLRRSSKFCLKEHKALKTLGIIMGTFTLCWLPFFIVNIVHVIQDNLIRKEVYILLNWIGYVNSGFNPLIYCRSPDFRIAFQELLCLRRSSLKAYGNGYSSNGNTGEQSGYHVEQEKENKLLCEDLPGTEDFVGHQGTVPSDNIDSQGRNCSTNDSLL
Vif A3G: HIV-1 Vif–A3G interaction blockers – biochemical, TR-FRET, GST-Vif 1-94, biotin-A3G peptide, dose response retest, primary screen (AID 1117319) | 260,000 compounds, 0.57% hits | TR-FRET GST-Vif / biotin-A3G peptide binding; higher % means a stronger effect; test concentration not given here; strong numbers were not always called active | one-dose inhibition, %; IC50 in µM for titrated hits;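 active = above the screen mean plus three standard deviations and confirmed in dose response; inconclusive = results disagree or hit not tested in dose response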;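 note: Vif residues 1-94 fused to GST binding biotinylated APOBEC3G peptide 110-148; 0% = full assay without inhibitor and 100% = GST in place of GST-Vif; retest series ran down from 100 µM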
E coli growth: E. coli growth inhibition | 330,000 compounds, 0.21% hits | OD600 absorbance (no concentration beside the values) | AID 1053175 | Escherichia coli growth, OD600, 23 h; active compounds read low;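 active = OD600 absorbance below the run mean of sample wells minus 3.6 SD, in any replicate, cut at about 0.56 in these data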;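 note: stock transfer was 300 nL into about 60 µL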
LANA-H2A inh: blocks KSHV LANA binding to histone H2A/H2B. cell-free LANA-H2A/H2B peptide, fluorescence polarization. inhibition, % (test concentration not listed). 320,000 compounds, 0.6% hits; in the data active = inhibition mostly above about 10%, no sharp cut-off; inactive = mostly below about 6.7%;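 note: stock transfer was 7.5 nL into about 10 µL; 0% = median of vehicle wells and 100% = median of positive control wells; one replicate is shown; the record names a cut of 25% in any replicate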
UCH37 inh: blocks the human deubiquitinase UCH37 | Q9Y5K5 | purified proteasome/UCH37, Ub-AMC cleavage fluorescence | inhibition, % (concentration not given with the values) | 330,000 compounds, 0.33% hits | AID 588478;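 active = mean of two replicates above 20%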;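 note: 0% = compound-free wells with enzyme and 100% = wells lacking proteasome; stock transfer was 100 nL into about 20 µL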
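Signal – fluorescence, ex 355 nm, em 460 nm · System – Proteasome-bound UCH37 · Input – 0.15 nM proteasome as dispensed · Timing – 30 min preincubation with enzyme, 25 min cleavage at room temperature · Read-out basis – percent inhibition of cleavage signal versus uninhibited and no-proteasome wells · Medium – Tris-HCl pH 7.4 with ATP-MgCl2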
HNF4A DNA FP: change in binding of human HNF4 alpha to DNA. P41235. HNF4a-FITC DNA binding, fluorescence polarization, 1 h. activity change, % at 10 µM. 360,000 compounds, 0.3% hits. AID 1224865; in the data active = activity change above about 30%, passing the limit was not always enough;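 note: controls were the assay level and a saturating level of protein; the project sought stronger binding though the title names inhibitors; some compounds called inactive have numbers as strong as hits; positive values seem to mean higher polarization but the record does not say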
Target sequence (P41235 whole entry, looked up): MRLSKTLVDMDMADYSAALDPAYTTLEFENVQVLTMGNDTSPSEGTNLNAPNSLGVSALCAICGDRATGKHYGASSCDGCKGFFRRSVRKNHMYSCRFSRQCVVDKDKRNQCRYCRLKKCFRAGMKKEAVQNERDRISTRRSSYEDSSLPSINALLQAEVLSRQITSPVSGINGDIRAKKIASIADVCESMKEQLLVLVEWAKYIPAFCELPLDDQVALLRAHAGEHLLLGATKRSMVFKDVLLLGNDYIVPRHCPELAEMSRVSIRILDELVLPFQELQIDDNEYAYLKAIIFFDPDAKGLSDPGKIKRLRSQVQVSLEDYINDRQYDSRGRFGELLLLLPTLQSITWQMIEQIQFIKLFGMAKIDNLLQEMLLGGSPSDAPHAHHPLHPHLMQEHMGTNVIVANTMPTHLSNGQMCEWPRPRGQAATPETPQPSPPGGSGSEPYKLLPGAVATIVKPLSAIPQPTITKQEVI
Bfl-1 A1 inh: inhibitors of the anti-apoptotic protein A1, read as caspase activation. 330,000 compounds, 0.066% hits. MEF A1-2A-BIM cells, Caspase-Glo 3/7 luminescence, 3 h; percent of clofoctol response, vehicle zero. caspase activation, % (no concentration beside the values);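 active = over half of replicate activation scores above 10%, or exactly half above 10 with the replicate mean above 10; inconclusive = replicate mean below 10 yet half the replicates above 10; inactive = over half of replicates below 10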;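 note: wells of about 30 µL received 50 nL stock; many hits fall short of the cut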
* = called active by the depositor; ? = inconclusive; nt = not tested or not shown; & = joins results of further samples. Random draw from the library (roughly 2.1% active in at least one column).

SMILES	B2AR ag	Vif A3G	E coli growth	LANA-H2A inh	UCH37 inh	HNF4A DNA FP	Bfl-1 A1 inh
Cc1ccc(Nc2nc(C(=O)NCCCN3CCOCC3)cs2)cc1	10	-4%	0.62	5.2	1.7	-0.6	0.2
CC(/C=C/C=C/c1ccccc1)=N\NC(=O)c1cccnc1	-1	4%	nt	8.4	nt	0.2	0.8
[N-]=[N+]=NC1c2ccccc2C(=O)N1Cc1ccccc1 (stereo not drawn)	1	nt	0.62	3.9	2.8	-4.0	2.4
CCCCN(CCCC)c1nc(-c2ccncc2)nc2ccccc12	21	7%	0.68	0.6	0.2	0.1	-0.3
CCOc1ccccc1N1CCN(CC(=O)c2c(N)n(C)c(=O)n(C)c2=O)CC1	2	-4%	0.71	7.4	0.2	4.5	0.5
CC(=O)Oc1ccccc1C(=O)Oc1ccc(/C=N/n2cnnc2)cc1	-2	3%	nt	1.3	nt	-0.3	0.4
Cc1cccnc1NC(=O)c1cccc(S(=O)(=O)N2CCN(c3ccc(F)cc3)CC2)c1	0	nt	0.69	3.3	3.0	-1.4	-1.1
O=[N+]([O-])c1ccc(F)c(N=Cc2ccc(Br)s2)c1	6	-3%	0.63	-3.4	4.4	-1.6	0.2
CNC(=S)N(CCc1c(C)[nH]c2ccc(C)cc12)Cc1cccs1	1	2%	0.68	0.7	-3.1	5.7	-0.8
CC(Oc1ccccc1)C(=O)Nc1oc(-c2ccco2)c(-c2ccco2)c1C#N (stereo not drawn)	28	?	0.67	-3.1	-1.8	-6.4	0.5
N#Cc1ccc(S(=O)(=O)NC2CCN(Cc3ccccc3)CC2)cc1	-3	-1%	0.64	1.2	0.8	-3.9	0.2
Cc1ccc(NC(=O)COC(=O)CN2CCCCCC2=O)c(C)c1	-1	-7%	0.67	5.5	1.0	-0.5	1.4
CC(C)c1ccc(NC(=O)C2CCCCC2C(=O)O)cc1 (stereo not drawn)	2	1%	nt	-1.1	nt	5.2	-0.4
COc1ccccc1CNC(=O)c1cc(-c2ccccc2)nn1CC1CC(c2cccnc2)=NO1 (stereo not drawn)	1	nt	0.64	-4.5	6.2	1.9	-2.0
Cc1ccccc1C(=O)N=c1sccn1C	1	1%	0.7	3.3	1.4	-1.7	0.5
CCCCC(=O)NCCc1ccc(S(N)(=O)=O)cc1	-1	1%	0.69	5.2	2.0	0.2	0.5
C/C=C/C(=O)OCC(=O)Nc1ccc(SC(F)F)cc1	2	18%	0.68	3.6	4.9	2.3	-0.3
COc1ccc(NC(=O)CN2C(=O)NC(CC(C)C)C2=O)cc1S(=O)(=O)N1CCOCC1 (stereo not drawn)	1	nt	0.7	5.8	5.5	0.9	-0.4
O=C(Nc1ccc(CN2CCS(=O)(=O)CC2)cc1)c1ccc(Cl)cc1	-5	-8%	0.67	2.7	4.0	2.9	-0.2
COc1ccc(CNC(=O)Cc2cccs2)cc1	-5	2%	0.7	-3.8	1.5	-0.3	-0.7
CCOC(=O)CN/C=C(\C#N)c1ccc(F)cc1	6	?	0.64	1.9	2.0	-1.6	-0.6
O=C(NC(NNc1ccc([N+](=O)[O-])cc1)(C(F)(F)F)C(F)(F)F)c1ccc(F)cc1	10	nt	0.67	-1.5	0.4	-2.1	0.7
Cc1ccc(NC(=O)C2CC(=O)n3c(nc4ccccc43)N2)cc1C (stereo not drawn)	9	?	0.71	16*	4.0	-4.3	1.9
CCN1CCN(c2ncc(C(=O)N3CCN(c4ccccc4OC)CC3)c3ccccc23)CC1	-3	nt	0.68	nt	-3.6	-0.6	nt
Cc1cc(C)n(C(=O)CCC(=O)Nc2ccc(C)c(C)c2)n1	-2	-10%	0.7	1.7	0.8	0.7	0.1
CCOC(=O)c1cnc(SCC(=O)Nc2cc(OC)ccc2OC)nc1N	0	3%	0.7	0.1	0.2	-4.5	-0.1
CC1=C(C(N)=O)C(c2cccc(O)c2)n2nc(CCCO)nc2N1 (stereo not drawn)	0	11%	0.75	0.1	5.8	-3.3	1.4
CC1=NN(C(=O)c2ccc(Cn3ccc([N+](=O)[O-])n3)cc2)C(O)(C(F)(F)F)C1 (stereo not drawn)	1	6%	0.73	4.5	1.1	4.2	0.9
O=C(COC(=O)c1ccc(Cl)c(S(=O)(=O)N2CCCCCC2)c1)Nc1ccccc1	0	0%	0.68	7.5	3.5	0.5	-0.1
C=CCn1c(N)cc(=O)nc1SCC(=O)Nc1ccc(C(=O)OC)cc1	-10	nt	0.69	-1.4	1.8	1.1	0.3
COc1ccc(N(C(=O)CCC(=O)Nc2cc(C)on2)C(C(=O)NC2CCCC2)c2ccco2)cc1 (stereo not drawn)	-5	nt	0.67	-2.7	1.0	0.9	-0.2
O=C(CCn1cnc(-c2ccccc2)c1-c1ccccc1)N/N=C/c1ccc(O)cc1	0	0%	nt	0.7	nt	-2.3	-2.0
Cc1ccccc1C1NC(=O)Cc2ccccc21 (stereo not drawn)	-1	6%	0.65	4.6	-0.2	8.3	-1.2
CCCCC(O)(c1ccc(F)cc1)C(CN1CCOCC1)c1ccc(Cl)cc1 (stereo not drawn)	2	nt	0.66	-0.8	4.2	-1.2	-0.4
O=C(CC(=O)c1ccccc1O)c1ccc(F)cc1	2	-9%	0.64	0.8	2.0	1.1	-2.4
COc1ccc(/C=N/NC(=O)c2cccnc2)cc1O	-1	nt	nt	-5.5	nt	0.7	-1.0
Cc1ccc(-c2c(C(=O)N/N=C/C3CC=CCC3)nnn2-c2nonc2N)cc1 (stereo not drawn)	0	nt	nt	3.4	nt	-0.7	-0.4
Cc1cccc(C(=O)Nc2ccc(C(=O)/C=C/c3cccnc3)cc2)c1	80*	-2%	0.69	1.0	7.1	-0.8	-2.8
Cc1ccc(Nc2cc(=O)[nH]c(=O)[nH]2)cc1Cl	2	-4%	0.66	-0.2	3.3	6.7	1.9
CC(C)(C)NC(=O)COC(=O)c1ccc(Cl)cc1O	-1	-7%	0.7	-3.2	-0.1	4.1	-0.5
CC(C)c1c(O)nc(SCC(=O)N2CCCCC2)[nH]c1=O	-4	-8%	0.69	0.1	5.3	1.2	0.5
COc1cc(NC(=O)c2c3c(nc4ccccc24)CCC3)cc(OC)c1	-1	7%	0.7	-4.5	2.6	-0.2	0.0
Fc1cccc(CCN2CCNC[C@@H]2CC2CCCCC2)c1	24	nt	nt	3.4	3.3	3.7	0.2
Cc1ccc(C(=O)COC(=O)CCS(=O)(=O)c2ccccc2)cc1[N+](=O)[O-]	15	2%	0.68	nt	-1.8	-0.6	0.4
CCOC(=O)c1c(NC(=O)CC2SC(=NC)N(C)C2=O)sc(C)c1C (stereo not drawn)	-2	-2%	0.72	1.5	-5.6	3.7	0.0
Cc1ccc2sc(N(CCCN(C)C)C(=O)CCS(=O)(=O)c3ccccc3)nc2c1C	10	nt	nt	2.2	nt	-1.1	-0.1
COCCn1nnnc1C(c1cccs1)N1CCN(c2cc(C)ccc2C)CC1 (stereo not drawn)	-1	65%&1%	0.66	-0.9	1.3	-1.8	0.4
CN(C)S(=O)(=O)n1ccnc1	6	0%	0.72	-3.0	4.0	0.8	-2.2
CC1CCN(S(=O)(=O)Cc2ccccc2Cl)CC1	-7	5%	0.69	5.7	0.7	-4.0	-0.8
COc1ccc(-n2c(=O)c3ccccc3n(CC(=O)NC3CCCC3)c2=O)cc1	0	2%	0.74	-2.1	2.2	2.7	0.2

Additional structures
SMILES	B2AR ag	Vif A3G	E coli growth	LANA-H2A inh	UCH37 inh	HNF4A DNA FP	Bfl-1 A1 inh
CCCCCc1nc2c(=O)[nH]c3ccccc3c2o1	-6	-5%	0.72	-0.9	-1.3	2.1	-1.7
Cc1ccc(NS(=O)(=O)c2ccc3c(c2)c(=O)n(C)c(=O)n3C)cc1F	2	3%	0.72	-1.9	0.2	3.0	0.3
COC(=O)[C@H](Cc1ccccc1)NS(=O)(=O)N[C@@H](Cc1ccccc1)C(=O)OC	4	nt	nt	-1.1	1.2	-1.4	1.2
COC(C(=O)Nc1cccc(F)c1)c1ccccc1 (stereo not drawn)	2	1%	0.66	0.2	-1.0	-1.7	0.3
Cc1ccccc1Oc1nc2ccccc2n2cnnc12	-10	?	0.63	-6.0	0.7	4.4	-1.1
O=C(/C(Cl)=C/Nc1ccc(Br)cn1)C(F)(F)F	-1	3%	0.68	0.7	4.9	-1.0	-0.5
C=CCn1c(SCC(=O)C23CC4CC(CC(C4)C2)C3)nc(O)cc1=O	-5	nt	0.7	8.8	7.2	3.8	0.3
CCOC(=O)N1CCN(c2nc3ccccc3nc2C(C#N)S(=O)(=O)c2ccc(C)cc2)CC1 (stereo not drawn)	8	5%	0.73	4.7	-0.5	-5.2	0.2
COC(=O)C(CC(=O)c1ccc(Cl)cc1)c1ccc(C)cc1 (stereo not drawn)	5	4%	0.71	-2.2	8.3	-0.7	-4.5
FC(F)(F)c1ccnc(N2CCN(Cc3cnc(-c4ccccc4)[nH]3)CC2)c1	-3	-3%	0.64	-21	-0.7	3.7	0.0
CCOC(=O)CSc1nc2ccccc2n2cnnc12	-8	2%	0.71	-4.5	-0.7	1.4	0.8
CCN(CC)C(=O)c1ccc2nc3ccccc3nc2c1	-15	28%	0.75	0.5	8.1	3.7	0.2
COc1ccc(C(=O)NC2CCN(CC(=O)NCc3ccccc3)CC2)cc1	0	nt	0.69	-1.6	2.2	7.7	1.1
Cc1ccc(N=CC2=C(O)CC(C)(C)CC2=O)nc1	-10	5%	0.77	-5.8	0.7	-2.2	1.4
COC(=O)c1ccc(CSc2nc3ccccc3[nH]2)o1	11	5%	0.62	-2.2	-0.3	3.9	-3.3
COc1ccc(C2(CNC(=O)/C=C/c3ccco3)CCCC2)cc1OC	-3	21%	0.67	0.3	-0.7	6.5	0.7
O=C(c1ccc2oc(CCCc3ccccc3)nc2c1)N1CCCCC1CO (stereo not drawn)	-4	-9%	0.66	4.7	1.9	0.0	-2.1
CC(C)N1CCN(Cc2ccc(OCc3ccccc3)cc2)CC1CCO (stereo not drawn)	3	nt	nt	-2.0	nt	-3.1	-0.7
O=c1ccc(Oc2nc(N3CCOCC3)nc(N3CCOCC3)n2)n[nH]1	1	-3%	0.67	4.1	0.9	-4.1	0.7
CC(/C=N\NC(=O)CN1CCN(Cc2ccccc2)CC1)=C\c1ccco1	-1	21%	nt	2.7	nt	2.7	1.3
O=C(OCc1nnc(-c2ccccc2)o1)c1ccc2c(c1)C(=O)N(CCc1ccccc1)C2=O	-4	-3%	0.74	-1.5	0.9	-1.5	-2.4
O=C(Oc1ccc([N+](=O)[O-])cc1)c1cccnc1	2	1%	nt	6.6	nt	-3.1	0.0
O=C(NCc1cccnc1)c1ccc(=O)oc1	-5	-1%	0.75	-2.3	14	-3.9	0.1
COc1ccccc1/C=C/C=N/NC(=O)CN1CCN(S(=O)(=O)c2ccc(C)cc2)CC1	-3	nt	nt	1.5	nt	-0.2	0.6
Cc1cccc(NC(=S)N2N=CCC2c2ccccc2)c1 (stereo not drawn)	-2	-3%	0.64	4.4	-1.7	4.5	-2.9
CCOc1cc(Cl)c(S(=O)(=O)NCCCN2CCOCC2)cc1Cl	-6	nt	0.69	0.7	0.3	5.3	1.0
O=C1Cc2cc(S(=O)(=O)N3CCN(c4cccc(Cl)c4)CC3)ccc2N1	27	nt	0.75	-2.4	0.8	-0.9	0.4
